Assay outcomes: PubChem, National Center for Advancing Translational Sciences (NCATS)
RE007 growth inh: less growth of the S. pombe RE007 Vpr strain; S. pombe RE007 Vpr strain, BacTiter-Glo ATP luminescence, 24 h; control for the full effect not named in the record; Potency, µM (top dose mostly 92.2 µM), inactives show at the top dose activity change, negative = less growth; actives 0.21% (n = 360,000); active = well fitted falling curve with a large enough effect; inconclusive = small, poorly fitted or top-dose-only effect; inactive = no such curve, though single readings can be large or run the other way;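 note: % is set by controls: 0 for no effect and ±100 for the full control effect; nearly all actives have a fitted effect of over 50% in size; the assay follows cell death caused by Vpr and the record does not say whether a fall means rescue or toxicity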
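Fission yeast strain RE007, carrying one chromosomally integrated HIV-1 vpr copy, was seeded at OD 0.01 in PMG+AL medium with 23 nL pinned compound. After 24 h at 30 °C and 99% humidity, viability was read by BacTiter-Glo luminescence.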
Lassa entry inh: Lassa virus entry inhibition | Lassa virus pseudotype entry inhibition, cell reporter; control for the full effect not named in the record | Potency, µM (series often up to 37.9 µM), for the others: at the top dose activity change, negative = inhibition, hits mostly inhibitors | actives 1.2% (n = 300,000) | AID 540256; active means well fitted inhibition curve with a large enough effect; inconclusive means small, poorly fitted or top-dose-only effect, or effect the other way; inactive means flat fitted curve, though single readings scatter; tested in HEK293 cells; note: % is set by controls: 0 for no effect and ±100 for the full control effect; nearly all actives have a fitted effect of over 50% in size; luciferase read-out
Cruzain inh Det: cruzain (T. cruzi) inhibition with detergent | purified cruzain, Z-FR-AMC fluorescence, 0.01% Triton | P25779 | Potency, µM, inactives show max response, negative = inhibition, usual class: inhibitors | actives 0.43% (n = 200,000); active = well fitted curve in the direction sought with a large enough effect; inconclusive = small, poorly fitted or top-dose-only effect, or another doubt; inactive = no such curve, though single readings can be large; an effect the other way counts as inactive or inconclusive;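 note: plate controls were neutral wells for no effect and buffer without enzyme for full effect; nearly all actives have a fitted effect of over 40% in size; top concentration of the series not given in the record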
Target sequence (P25779 123-467 limits assumed): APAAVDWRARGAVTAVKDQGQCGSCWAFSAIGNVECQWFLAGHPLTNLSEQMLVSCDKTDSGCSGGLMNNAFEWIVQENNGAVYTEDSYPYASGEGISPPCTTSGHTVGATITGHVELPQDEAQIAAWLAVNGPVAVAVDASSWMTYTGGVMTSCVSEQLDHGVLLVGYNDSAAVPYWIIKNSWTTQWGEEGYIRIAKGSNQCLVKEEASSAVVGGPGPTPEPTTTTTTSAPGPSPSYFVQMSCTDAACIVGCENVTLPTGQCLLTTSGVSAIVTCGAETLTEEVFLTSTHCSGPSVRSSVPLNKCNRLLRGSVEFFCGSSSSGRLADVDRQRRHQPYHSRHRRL
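Cruzain (1.5 nM) preincubated 15 min at RT with compound in 100 mM sodium acetate pH 5.5, 5 mM DTT, 0.01% Triton X-100. Reaction started with 2 uM Z-FR-AMC; AMC fluorescence (ex 360/em 450 nm) change over 60 s gave rate.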
Marburg entry inh: blocks Marburg virus binding to or entry into cells | Marburg virus pseudotyped entry inhibition, cell reporter; control for the full effect not named in the record; about a third of the inactives were read at about 46 µM | Potency, µM (titrated, usually from 37.8 µM), for inactives: at the highest dose activity change, negative = inhibition, hits mostly inhibitors | actives 1.8% (n = 300,000); active = well fitted inhibition curve with a large enough effect; inconclusive = small, poorly fitted or top-dose-only effect, or effect the other way; inactive = flat fitted curve, though single readings scatter; tested in HEK293 cells; about a fifth of its hits are not listed in these tables; note: % is set by controls: 0 for no effect and ±100 for the full control effect; luciferase read-out
2A StopGo: FMDV 2A StopGo reporter, luciferase signal | human cells with a luciferase reporter of 2A StopGo recoding; control for the full effect not named in the record | Potency, µM (series often up to 57.9 µM), for inactives: top-dose signal change, negative = less light | actives 1.2% (n = 410,000); active = well fitted falling curve with a large enough effect; inconclusive = small, poorly fitted or top-dose-only effect; inactive = no such curve, though single readings can be large or run the other way; tested in HEK293T cells; note: % is set by controls: 0 for no effect and ±100 for the full control effect; nearly all actives have a fitted effect of over 45% in size; luciferase light after 4 h
Cruzain noTriton: blocks cruzain activity in detergent-free assay | P25779 | purified cruzain, Z-FR-AMC fluorescence, no detergent | actives 2.3% (n = 200,000) | Potency, µM, for the others: max response, negative = inhibition, usual class: inhibitors; active = well fitted curve in the direction sought with a large enough effect; inconclusive = small, poorly fitted or top-dose-only effect, or another doubt; inactive = no such curve, though single readings can be large; an effect the other way counts as inactive or inconclusive;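 note: plate controls were enzyme without inhibitor for no effect and buffer without enzyme for full effect; nearly all actives have a fitted effect of over 40% in size; top concentration of the series not given in the record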
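Purified cruzain at 1.5 nM, pre-incubated 15 min with compound at room temperature in 100 mM sodium acetate pH 5.5, 5 mM DTT, 0.00005% Triton X-100. Reaction started with 2 uM Z-FR-AMC; AMC fluorescence increase over 60 s gives rate.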
SARS PLP yeast: blocks SARS-CoV papain-like protease in a yeast assay | S. cerevisiae expressing SARS-CoV PLpro, growth rescue; control for the full effect not named in the record | Potency, µM (top dose mostly 32.9 µM), inactives show top-dose activity, positive = growth rescue | actives 0.19% (n = 330,000) | AID 485353; note: 0% is about no effect; nearly all actives have a fitted effect of over 55% in size; growth read by luminescence after 48 h
NS1 function inh: influenza NS1 inhibition. S. cerevisiae slowed by influenza A NS1, growth recovery by OD600. Potency, µM (series often up to 46.1 µM), inactives show at the top dose activity, positive = more growth. actives 0.4% (n = 270,000); note: actives are rising curves; nearly all actives have a fitted effect of over 50% in size
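Compounds were scored for reversing the slow growth caused by influenza A NS1 in S. cerevisiae, measured by optical density at 600 nm. Assay medium contained 2% galactose at pH 6.0; NS1-free yeast of the same strain were the positive control.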
Numbers without * were called inactive; u = inconclusive; x = no result given; & = joins results of further samples; [ ] = remark or other dose. Unless noted, calls come from the whole dose curve; as a rule, active means well fitted rising curve with a large enough effect; inconclusive means small, poorly fitted or top-dose-only effect; inactive means no such curve, though single readings can be large or run the other way. Potency is the fitted concentration of half-maximal effect. Compounds as they come, and some 4.5% of all compounds hit somewhere here.

Order of values: SARS PLP yeast | 2A StopGo | Cruzain noTriton | Marburg entry inh | Lassa entry inh | Cruzain inh Det | RE007 growth inh | NS1 function inh
1. COc1ccccc1N1CCN(C(=O)c2cc3c(=O)n4cccc(C)c4nc3s2)CC1
  9% | -2% | x | 0%[46.1 µM] | 4%[46.1 µM] | x | -9% | -4%
2. C=CCn1cnc2c(c1=O)c1nc3ccccc3nc1n2-c1ccccc1
  -4% | x | 1% | -2% | x | 2.1% | x | 1%
3. COc1ccc(-c2ccc(OC)cc2C(=O)O)cc1
  -4% | -18% | 3% | u | 18% | 2.4% | -2% | -24%
4. Cn1ncc(N=Cc2ccccc2O)c1C(=O)N1CCOCC1
  -7% | -9% | -11% | 3%&3% | 1% | 0.5% | 2% | 0%
5. Cc1ccccc1C(=O)NC(=S)Nc1ccc(Cc2ccncc2)cc1
  -10% | -18% | 4% | 28% | -1% | -8.0% | -1% | 28%
6. COc1ccc(NC(=O)c2nc3nccc(C)n3n2)cc1S(=O)(=O)N1CCOCC1
  -5% | -14% | x | 3% | 9% | x | -12% | x
7. O=C(O)c1nn(CC(=O)N2CCC(Cc3ccccc3)CC2)c(=O)c2ccccc12
  0% | -27% | x | 0%[46.1 µM] | x | x | 5% | 2%
8. C#CCn1c(=O)cc(C)c2ccccc21
  1% | u | x | 0%[46.1 µM] | -2% | x | 6% | 1%
9. Cc1ccc(NC(=O)N2CCCC2)cc1Cl
  -1% | 29% | x | u | 16% | x | u | x
10. CCS(=O)(=O)N1CCN(S(=O)(=O)c2ccc(F)cc2)CC1
  7% | -2% | 13% | 3% | -5% | 0.0% | 20% | 4%

Next part, overlapping the part above by five compounds.
Order of values: SARS PLP yeast | 2A StopGo | Cruzain noTriton | Marburg entry inh | Lassa entry inh | Cruzain inh Det | RE007 growth inh | NS1 function inh
6. COc1ccc(NC(=O)c2nc3nccc(C)n3n2)cc1S(=O)(=O)N1CCOCC1
  -5% | -14% | x | 3% | 9% | x | -12% | x
7. O=C(O)c1nn(CC(=O)N2CCC(Cc3ccccc3)CC2)c(=O)c2ccccc12
  0% | -27% | x | 0%[46.1 µM] | x | x | 5% | 2%
8. C#CCn1c(=O)cc(C)c2ccccc21
  1% | u | x | 0%[46.1 µM] | -2% | x | 6% | 1%
9. Cc1ccc(NC(=O)N2CCCC2)cc1Cl
  -1% | 29% | x | u | 16% | x | u | x
10. CCS(=O)(=O)N1CCN(S(=O)(=O)c2ccc(F)cc2)CC1
  7% | -2% | 13% | 3% | -5% | 0.0% | 20% | 4%
11. CC1(C)Cn2c(nnc2-c2cccc(O)c2)S1
  -1% | -10% | -8% | 18% | 34%[14.3 µM] | -3.4% | 7% | 4%
12. COc1ccc(CCNC(=O)CCc2ccc(S(=O)(=O)NC(C)C)cc2)cc1OC
  7% | -18% | -2% | -3% | -3% | -1.5% | 1% | 4%
13. Cc1ccccc1NC(=O)CN(c1ccc(Cl)cc1Cl)S(=O)(=O)c1ccccc1
  x | 2% | 5% | u | u | -4.5% | x | x
14. CCOC(=O)N1CCN(C(=O)c2cccc(NS(=O)(=O)c3ccc(F)c(F)c3)c2)CC1
  0% | 1% | 8% | 23% | -3% | -0.7% | -4% | -9%
15. O=C1Nc2ccccc2SC(c2ccccc2)C1O (centres undefined)
  8% | -2% | -6% | 18% | 6% | -11% | -14% | 9%
16. Fc1ccccc1NC(=S)N(CCN1CCCCCC1)Cc1cccs1
  0% | 14% | x | u | -18% | x | -5% | x
17. COCCCNC(=O)Cn1nnc(-c2ccc(NC(=O)c3ccccc3OC)cc2)n1
  4% | x | 11% | -4%&17% | 14% | -0.3% | -13% | 3%
18. CC(=O)c1ccc(OC(=O)CCc2nc3ccccc3s2)cc1
  0% | -10% | x | u | 5%[46.1 µM] | x | 2% | x
19. Cc1ccc(S(=O)(=O)N2CCOCC2)cc1C(=O)NCc1ccc(F)cc1
  1% | -5% | 6% | 7% | -8% | 0.6% | -2% | 3%
20. CCOC(=O)C1CCCN(Cc2ccccc2Cl)C1 (centres undefined)
  -2% | x | -3% | 5% | 20% | 1.5% | 12% | 9%

Whole records, looked up by structure. Values in the order: SARS PLP yeast	2A StopGo	Cruzain noTriton	Marburg entry inh	Lassa entry inh	Cruzain inh Det	RE007 growth inh	NS1 function inh
Fc1ccccc1NC(=S)N(CCN1CCCCCC1)Cc1cccs1 reads 0%	14%	x	u	-18%	x	-5%	x
CC1(C)Cn2c(nnc2-c2cccc(O)c2)S1 reads -1%	-10%	-8%	18%	34%[14.3 µM]	-3.4%	7%	4%

(continued)
Order of values: SARS PLP yeast | 2A StopGo | Cruzain noTriton | Marburg entry inh | Lassa entry inh | Cruzain inh Det | RE007 growth inh | NS1 function inh
21. Cc1ccc2nc3c(cc(C(=O)NCCc4ccccc4)c(=N)n3CC3CCCO3)c(=O)n2c1 (centres undefined)
  0% | -5% | x | u | -10%[46.1 µM] | x | -2% | -2%
22. CCc1nn2c(=O)cc(COc3ccc(/C=C(\C#N)C(=O)Nc4ccc(F)cc4)cc3OC)nc2s1
  x | -18% | 5% | 1%[46.1 µM] | -3%[46.1 µM] | -1.8% | x | x
23. Cc1ccc(S(=O)(=O)Nc2ccc(NC(=O)Nc3cccc(C(F)(F)F)c3)cc2)cc1
  25% | u | 23% | u | u | -4.8% | 11% | -5%
24. CC(=O)Nc1ccc(NC(=O)CN2CCCC(C)C2)c(Cl)c1 (centres undefined)
  -2% | 42%[activator] | -4% | -6% | u | 1.8% | -23% | 2%
25. CN(C(=O)Cn1nc(Cc2cccnc2)c2ccccc2c1=O)c1cccc(C(F)(F)F)c1
  x | -19% | -4% | 4%[46.1 µM] | -17%[46.1 µM] | -1.7% | x | x
26. COc1ccc(CN2C(=O)c3cccnc3C2=O)cc1S(=O)(=O)NC(C)C
  1% | -16% | x | x | x | x | 3% | -1%
27. CC1=CC2=NC(=O)/C(=C/c3coc4ccc(Cl)cc4c3=O)C(=N)N2O1
  -1% | -28% | x | -7%[14.2 µM] | -18% | x | 9% | -8%
28. Cc1ccc(NC(=O)CSc2nc3c([nH]c4ccccc43)c(=O)n2-c2ccccc2)c(C)c1
  x | -23% | 13% | x | -4%[46.1 µM] | -1.7% | x | x
29. O=C(O)CSc1nc2c(cnn2-c2ccccc2)c(=O)n1-c1ccc(Br)cc1
  -10% | -10% | -11% | u | 1% | -1.5% | -3% | u
